HPGD inh = inhibitors of human 15-hydroxyprostaglandin dehydrogenase (HPGD); Potency, µM, without a hit: at the top dose activity change, negative = inhibition, hits mostly inhibitors; P15428; purified HPGD, NADH fluorescence kinetic, PGE2 substrate; 4.3% of 150,000 active; active = well fitted inhibition curve with a large enough effect (not every such curve was filed as active); inconclusive = small, poorly fitted or top-dose-only effect, or another doubt; inactive = no such curve, though single readings can be large or run the other way;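 further: top concentration of the series not given in the record; plate controls included wells without enzyme; inactives centre near -10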
Target sequence (P15428 whole entry, looked up): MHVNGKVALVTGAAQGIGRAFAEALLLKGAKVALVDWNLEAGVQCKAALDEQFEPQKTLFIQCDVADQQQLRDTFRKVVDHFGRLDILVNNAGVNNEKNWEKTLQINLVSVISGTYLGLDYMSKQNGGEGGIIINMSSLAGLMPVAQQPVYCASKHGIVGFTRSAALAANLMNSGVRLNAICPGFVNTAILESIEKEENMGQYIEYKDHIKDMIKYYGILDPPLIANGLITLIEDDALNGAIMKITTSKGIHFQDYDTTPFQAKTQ
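NADH formation kinetics: reaction with 30 uM PGE2 and 1 mM NAD+ (final), 20 nM enzyme, Tris-HCl pH 8 with Tween 20, after 15 min compound preincubation at room temperature. Fluorescence change, last versus first of five reads.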
Active calls of the source: *; ? = inconclusive. On the % scale 0 is the no-effect control and ±100 the full control effect; potency means the concentration at half of the fitted maximal effect. These rows are one share of the data; the hit share may differ from the screen's.

SMILES	HPGD inh
CCCCCCCCCc1nc2sc3c(c2c(=O)n1NC(=O)c1ccc([N+](=O)[O-])cc1)CC(C)(C)OC3	-7%
COc1ccc(-c2n[nH]c(C)c2-c2ccc(Cl)cc2)c(O)c1	-21%
CCn1cc(C(=O)NCc2cccnc2)c(=O)c2cc(F)c(N3CCN(C(=O)c4ccco4)CC3)cc21	?
COC(=O)c1sccc1NC(=O)CCC1CCCC1	-20%
O=C(CN(Cc1ccccc1)S(=O)(=O)c1ccccc1)N1CCOCC1	0%
CS(=O)(=O)N(CC(=O)NCc1ccco1)c1cc(C(F)(F)F)ccc1Cl	-5%
Cc1ccc(C2(c3ccc(C)cc3)NC(=O)N(Cc3c(C)noc3C)C2=O)cc1	-16%
Cc1cc(N2C(=O)C3CC=CCC3C2=O)cc(C)c1Br (configuration not stated)	-11%
O=C(CCN1C(=O)c2ccccc2C1=O)C1=NN[C@@H]2C(=O)N(c3ccc(F)cc3)C(=O)[C@H]12	-16%
NC(=O)Cn1cc(C(=O)c2cccs2)c2ccccc21	-4%

5 entries from above, sorted by the value under HPGD inh, smallest number first:
SMILES	HPGD inh
COc1ccc(-c2n[nH]c(C)c2-c2ccc(Cl)cc2)c(O)c1	-21%
COC(=O)c1sccc1NC(=O)CCC1CCCC1	-20%
Cc1cc(N2C(=O)C3CC=CCC3C2=O)cc(C)c1Br (configuration not stated)	-11%
CCCCCCCCCc1nc2sc3c(c2c(=O)n1NC(=O)c1ccc([N+](=O)[O-])cc1)CC(C)(C)OC3	-7%
NC(=O)Cn1cc(C(=O)c2cccs2)c2ccccc21	-4%

Next section.
SMILES	HPGD inh
CCC(C)[C@H](NC(=O)NCc1cccs1)C(=O)OC (some centres not stated)	-3%
N=C(N)c1ccc(N)cc1	-6%
O=[N+]([O-])c1ccc(N=Nc2ccc(O)cc2O)cc1	-19%
COc1ccc(NC(=O)C2CCN(c3nc(C)nc4c3CCC4)CC2)cc1	-6%
Cc1cccc2nc(CSc3nncn3-c3ccccc3)cn12	5%
Cc1ccc(NC(=O)CSCC(=O)NC2CCCCC2)cc1	16µM*
O=C(O)Cn1cnc2ccccc2c1=O	-4%
CCn1nc(C)c(NC(=O)/C=C/c2ccc(OC)c(COc3ccc(Cl)cc3Br)c2)c1C	-14%
CN1CCN(C(=O)c2nc3ccc(Cl)cc3[nH]2)CC1	-17%
O=C(O)c1ccc(N2C(=O)C3ON(c4ccccc4)C(c4ccccc4F)C3C2=O)cc1 (configuration not stated)	-12%
Cc1cccc(N2C(N)=NC(N)=NC23CCCCC3)c1	4%
CCCCC(CCC(=O)Nc1ccc(C(=O)OC)cc1)C(=O)O (configuration not stated)	-7%
O=C(Cn1nnc(-c2ccncc2)n1)NCCc1ccccc1	-14%
S=c1[nH]nc(C2CCCCC2)n1/N=C/c1cccs1	13µM*
C=CCNC(=O)c1onc(CSc2ccccc2C)c1C(=O)O	-14%
CCCCNC(=S)NNC(=O)c1nn(C)c(C)c1Cl	-14%
O=C(NCCN1CCCC1)c1ccc(Cc2nc3ccccc3[nH]2)cc1	-3%
COc1ccccc1NC(=O)Cn1cnc2c(oc3ccccc32)c1=O	-5%
Cc1ccc2c(c1)nnn2C1CCN(CC(=O)c2ccc(Cl)cc2)CC1	-7%
CC(C)CC(=O)NC1(C(F)(F)F)C(=O)N(CC(C)C)C2=C1C(=O)CC(C)(C)C2 (configuration not stated)	-2%

Next part (7 carried over from the part before).
SMILES	HPGD inh
S=c1[nH]nc(C2CCCCC2)n1/N=C/c1cccs1	13µM*
C=CCNC(=O)c1onc(CSc2ccccc2C)c1C(=O)O	-14%
CCCCNC(=S)NNC(=O)c1nn(C)c(C)c1Cl	-14%
O=C(NCCN1CCCC1)c1ccc(Cc2nc3ccccc3[nH]2)cc1	-3%
COc1ccccc1NC(=O)Cn1cnc2c(oc3ccccc32)c1=O	-5%
Cc1ccc2c(c1)nnn2C1CCN(CC(=O)c2ccc(Cl)cc2)CC1	-7%
CC(C)CC(=O)NC1(C(F)(F)F)C(=O)N(CC(C)C)C2=C1C(=O)CC(C)(C)C2 (configuration not stated)	-2%
COc1ccc2[nH]c(C)c(CCN(Cc3cccs3)C(=S)Nc3ccc(F)cc3)c2c1	-17%
c1ccc(Oc2nc(Oc3ccccc3)nc(N3CCOCC3)n2)cc1	-3%
O=C(Nc1nccs1)C1CCCN1S(=O)(=O)c1cccc2cccnc12 (configuration not stated)	1%
CCOCCCNC(=O)C(Cc1ccccc1)NC(=O)c1ccco1 (configuration not stated)	-6%
CCOc1ccc(NC(=O)C2CCC(CNc3c(N4CCOCC4)c(=O)c3=O)CC2)cc1 (configuration not stated)	-18%
COc1ccc(N2CCN(C(=O)c3ccc(N4C(=O)NC5CC4(C)Oc4ccccc45)cc3)CC2)cc1 (configuration not stated)	2%
CC1=C(C(=O)N2CCCCC2)C(c2cccs2)NC(=O)N1 (configuration not stated)	-9%
CCOC(=O)c1c(C)[nH]c(C)c1C(=O)COC(=O)/C=C/c1ccc(Cl)cc1	-5%
Cc1ccc(-c2cc3nc(-c4ccccc4)cc(N4CCOCC4)n3n2)cc1	?
C=CCNc1ncnc2ccccc12	-11%
COC(=O)Cn1cc(C(=O)C2CC2)c2ccccc21	-3%
CCC(=O)OC1CC(C)N(C(=O)c2ccccc2)c2ccc(C)cc21 (configuration not stated)	-6%
COC(=O)c1ccc2c(c1)C(=O)N(C1CCCCC1)C2=O	-20%
Cc1ccc(-n2c3c(cc(C(=O)N4CCN(C)CC4)c2=O)C(=O)CC(C)(C)C3)cc1	-3%
CCOC(=O)CNC(=O)CSc1nnc(-c2ccc(OC)cc2)n1CC	0%
COC(=O)c1c(NC(=O)c2nc3nc(C)cc(C(F)F)n3n2)sc2c1CCC2	-14%
Cc1ccsc1/C=N\NC(=O)Cn1nnc2ccccc21	-28%
COc1cc(C(=O)CSc2nncn2C)cc(OC)c1OC	-20%
CC(=O)c1ccc(NC(=O)CN2C(=O)/C(=C/C=C/c3ccccc3)SC2=S)cc1	-19%
COC(=O)c1cc2c(-c3ccccc3)cc3ccccn3c-2c1C(=O)OC	-7%
COc1ccc(CNC(=O)c2cccc3c2C(=O)N(Cc2cccnc2)C3)cc1	1%
Cc1cc2oc(=O)cc(CN3CCCCC3)c2cc1C(C)C	-21%
CCOC(=O)Cn1c(=O)oc2cc(S(=O)(=O)NCC3CCCO3)ccc21 (configuration not stated)	-19%
N#Cc1ccc(CSc2nnc(-c3ccccc3)n2Cc2ccco2)cc1	-6%
Cc1nc2ccc(S(=O)(=O)NC(C(=O)N3CCC(C)CC3)C(C)C)cc2s1 (configuration not stated)	-2%
O=C(O)CCC(O)=C1S(=O)(=O)OCCOS1(=O)=O	-5%
CCOc1cc(CN2CCCCC2)ccc1OC	0%
Cc1cc(C)c(S(=O)(=O)Nc2c(C)[nH]c(=O)[nH]c2=O)c(C)c1	2%
Cc1cc(NS(=O)(=O)c2ccc(NC(=S)NC(=O)c3ccc(Cl)cc3Cl)cc2)no1	25µM*
CCOc1ccccc1Nc1nc(N)nc(CSc2nccc(C)n2)n1	-13%
CCCCOC(=O)n1c(=O)oc2ccccc21	-11%
CC1CCc2c(sc(NC(=O)c3ccc(Cn4cc([N+](=O)[O-])cn4)o3)c2C#N)C1 (configuration not stated)	-22%
Cc1ccc2c(c1)nnn2C1CCN(S(=O)(=O)c2ccc3ccccc3c2)CC1	-6%
CCOC(=O)Cc1csc(NC(=O)c2c(O)c3ccccc3n(CC(C)C)c2=O)n1	-10%
COc1ccc2oc(C(=O)OCC(=O)NC(=O)NC(C)C)c(C)c2c1	?
O=C(O)Cn1ncc2c1-c1ccoc1CC2	-19%
CCOC(=O)N1CCC(NC(=O)Cn2ncc3c2-c2cc(C)ccc2OC3)CC1	-3%
CCCCCCCC/C=C\CCCCCCCC(=O)NCCc1ccc(O)c(O)c1	?
COc1ccc(Nc2nc(Nc3ccc(OC)cc3)nc(SC3=NCCS3)n2)cc1	-9%
CC1=CC2=NC(=O)/C(=C\c3cc(C)n(-c4ccccc4)c3C)C(=N)N2O1	-14%
COC(=O)Cn1c(=NC(=O)c2cc(OC)c(OC)c(OC)c2)sc2cc(OC)ccc21	?
CCOC(=O)Cn1c(Br)nc2c1c(=O)[nH]c(=O)n2C	-4%
O=C(O)c1cc2ccc3ccccc3c2oc1=O	?
Cc1cc(C)n(-c2ccc(F)cc2)c(=O)c1C(=O)O	-10%
Oc1ccc(Br)cc1/C=N/n1cnc2ccccc21	14µM*
CCOc1cc(/C=N\NC(=O)Cc2ccccc2)ccc1OCC(=O)Nc1ccc(C)c(C)c1	-11%
c1ccc2c(Nc3nnc(-c4ccncc4)s3)cccc2c1	-9%
Cc1ccc(-c2nc(C#N)c(NCCN3CCCCC3)o2)cc1	?
CCN(CC)CCN1C(=O)c2ccccc2NC1c1ccc(N(C)C)cc1 (configuration not stated)	-15%
Cc1ccc([N+](=O)[O-])cc1-c1ccc(/C=N/NC(=O)c2cc3c(ccc4ccccc43)o2)o1	-21%
Later entries
SMILES	HPGD inh
Cn1c(=O)[nH]c(=O)c2c1nc(Br)n2CCCSc1nc2ccccc2o1	22µM*
O=c1ncn(-c2ccc(F)cc2)c2ncccc12	-6%
CC(C)(C)c1ccc(C2(C)NC(=O)N(CC(=O)c3ccc[nH]3)C2=O)cc1 (configuration not stated)	-1%
CNC(=O)CCc1nc(-c2ccc(C(C)(C)C)cc2)no1	-17%
CCCN1C(=O)c2ccc(C(=O)NC3CCCCC3)cc2C1=O	4%
Cc1noc(C)c1COc1cccc(C(=O)OC(C)C(=O)Nc2ccc3c(c2)OCO3)c1 (configuration not stated)	0%
CCOC(=O)CNC(=O)O[C@@H]1C(=O)c2cc(Br)ccc2O[C@H]1c1cccc(OC)c1	-5%
Clc1ccc(-c2nn3cnnc3s2)c(Cl)c1	-6%
O=C(Nc1nc2ccccc2s1)C1CC(=O)N(c2ccc(Br)cc2)C1 (configuration not stated)	-17%
O=C(COC(=O)c1ccc([N+](=O)[O-])s1)NCc1ccc(F)cc1	-1%
COc1ccc(OC)c(NC(=O)C2CCCNC2=O)c1 (configuration not stated)	-3%
Cc1cc(-c2ccccc2)nc(SCc2ccc(C(=O)O)o2)n1	-8%
CC(=O)C(Sc1ccc2nnc(-c3ccc(F)cc3)n2n1)C(C)=O	?
Cc1cc(Cl)ccc1NC(=S)N1CCOCC1	-5%
Cc1noc(/C=C/NCc2cccnc2)c1S(=O)(=O)N(C)CC(=O)N1CCc2ccccc21	-10%
COC(=O)CNC(=O)Cc1c(F)cccc1Cl	0%
O=C(c1cccs1)N1CCN=C1SCc1cccnc1	-11%
O=C(CSc1ccccn1)N1CCN(C(=O)CSc2ccccn2)CC1	-7%
CCOC(=O)c1cnc(-c2ccccc2)nc1Oc1cccc(Cl)c1	-3%
O=C(COC(=O)c1ccc(S(=O)(=O)N2CCOCC2)cc1)NC1CCCCCC1	-12%
O=C1CSC(c2ccccc2)N1c1nc(-c2ccc(Cl)cc2Cl)cs1 (configuration not stated)	-9%
CN(c1ccccc1C(=O)Nc1ccc(S(=O)(=O)N2CCCC2)cc1)S(C)(=O)=O	-12%
COc1ccc(/C=N/n2c(N)nc(-c3ccccc3)c2-c2ccccc2)cc1	0%
CCN(CC)c1ccc(C2CC(=O)NC3=C2C(=O)CC(C)(C)C3)cc1 (configuration not stated)	-17%
CCCn1c(=O)[nH]c(=O)c2c1nc(-c1ccccc1)n2CCN1CCOCC1	-16%
CC(O)CNc1nc2c(c(=O)n(C)c(=O)n2C)n1CCc1ccccc1 (configuration not stated)	-1%
C=CCN=C(NC#N)SCC(=O)c1cccc(OC)c1	-27%
C=CCSc1nnc(-c2ccccc2NC(=O)CC)c(=O)[nH]1	-6%
O=C(O)C1C2C=CC(O2)C1C(=O)Nc1ccccc1C(F)(F)F (configuration not stated)	-1%
O=C(c1cccs1)n1nc(NCc2ccccc2)nc1NCc1ccccc1	-18%
CCOC(=O)CSc1nnc(NC(=O)c2cccc([N+](=O)[O-])c2)s1	-21%
COc1ccc(C[N+](C)(C)N)cc1OC	-3%
CN(C)C(=C(C#N)C#N)N1CCN(c2ccc(Cl)c(Cl)c2)CC1	-2%
Cc1cc(C)c2cc(C(O)c3nnnn3Cc3ccccc3)c(=O)[nH]c2c1 (configuration not stated)	-24%
Cn1c(=O)oc2cc(S(=O)(=O)N3CCCC(C(=O)N4CCn5c4nc4ccccc45)C3)ccc21 (configuration not stated)	-3%
COCC(=O)n1nc(NCc2ccc(OC)cc2)nc1NCc1ccc(OC)cc1	-1%
O=C(Nc1cc(C(F)(F)F)ccc1N1CCOCC1)c1cn2ccccc2n1	?
Cc1ccc(Cn2c(C(=O)O)cc3sccc32)cc1	-1%
COC(=O)c1sc2ncn(-n3c(C)ccc3C)c(=O)c2c1C	-13%
CCN(CC)S(=O)(=O)c1cc(-c2nnc(-c3ccc(Br)cc3)o2)ccc1Br	-6%
CC1(C)SC(=S)N(NC(=O)Nc2ccccc2)C1N(O)C(=O)Nc1cccc2ccccc12 (configuration not stated)	?
COc1cc(CNn2nnnc2N)cc(Br)c1OCC(=O)NC(C)(C)C	-1%
CCN1CCCC1CNCc1cccc(OC)c1OCc1ccccc1 (configuration not stated)	-12%
Cc1ccc(-c2csc(NC(=S)NC(=O)/C=C/c3ccco3)n2)cc1	-11%
CS(=O)(=O)N(CC(=O)N1CCCCCC1)c1ccccc1	-4%
CCOC(=O)N1CCN(C(=O)c2ccc(Cn3c(=S)[nH]c4cc5c(cc4c3=O)OCO5)cc2)CC1	-9%
NC(=O)c1ccc(N2CCCCC2)c(N2C(=O)C3C4C=CC(C4)C3C2=O)c1 (configuration not stated)	-4%

Screening data deposited in PubChem by National Center for Advancing Translational Sciences (NCATS).
